Screening results deposited in PubChem BioAssay by National Center for Advancing Translational Sciences (NCATS).
PINK1 expr mod: A Quantitative High throughput Screen to Identify Chemical Modulators of PINK1 Expression. PINK1 immunofluorescence, high-content cytometry, 24 h. Potency, µM (doses to about 76.6 µM), for inactives: at the highest dose activation (PINK1 increase), usual class: activators. 0.2% of 410,000 active; active = well fitted activation curve with a large enough effect; inconclusive = small, poorly fitted or top-dose-only effect; inactive = flat fitted curve, though single readings scatter; cell line not stated here;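 further: potency means the concentration at half of the fitted maximal effect; % of control where 0% means no effect; nearly all actives have a fitted effect of over 65% in size; a mitochondrial uncoupler was the plate control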
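Measures PINK1 amount and localization on or inside mitochondria by immunofluorescence. Stable cells get compounds at 5 concentrations for 24 hours before fixation and staining; CCCP controls included.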
Menin MLL FP FL: qHTS Assay for Inhibitors Targeting the Menin-MLL Interaction in MLL Related Leukemias: Competition With Fluorescein Labeled MLL-derived Peptide | Fluorescence polarization, fluorescein-MLL peptide displacement from menin | FP activity change, % at 61.4 µM | 290,000 tested, under 10 active; inconclusive = falling polarisation curve, or a change in total fluorescence; inactive = total fluorescence flat and polarisation flat or rising; no compound was filed as active; the % refers to the polarisation; negative = inhibition;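 further: % of control where 0% means no effect; inhibitors lower the polarisation; unlabelled MLL peptide was the positive control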
TRPV1 potentiator: HTS Assay for Compounds that Act as Potentiators of the Vanilloid Receptor 1 | Transient receptor potential cation channel subfamily V member 1 (Homo sapiens), Q8NER1 | TRPV1-expressing cells, Fluo-8 calcium influx, capsaicin EC20 potentiation; host cell line not named in the record; control for the full effect not named in the record | potentiation, % at 8.33 µM | 0.02% of 320,000 active | AID 540277, 2011; active means potentiation above 80%; inconclusive means 30% to 80%; inactive means below 30%; further: 0% is about no effect
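Fluo-8 calcium influx in TRPV1-expressing cells, kinetic read (ex 480/em 520 nm). Compound added and read 3 min for agonist activity, followed by capsaicin at EC20 final and 2 min further read for enhancement.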
TRPML1 ag: qHTS for Agonists of the Human Mucolipin Transient Receptor Potential 1 (TRPML1); 0.12% of 410,000 active; Mucolipin-1 (Homo sapiens), Q9GZU1; AID 624414, 2012; TRPML1-expressing cells, Ca2+ dye fluorescence, FDSS; host cell line not named in the record; reference of the full effect not given here; activation, % (no concentration beside the values); in the data active = activation above about 50%; inconclusive = about 30% to 50%; inactive = below about 30%; further: 0% is about no effect; the text of the record puts the active cut at 80%
Target sequence (Q9GZU1 whole entry, looked up): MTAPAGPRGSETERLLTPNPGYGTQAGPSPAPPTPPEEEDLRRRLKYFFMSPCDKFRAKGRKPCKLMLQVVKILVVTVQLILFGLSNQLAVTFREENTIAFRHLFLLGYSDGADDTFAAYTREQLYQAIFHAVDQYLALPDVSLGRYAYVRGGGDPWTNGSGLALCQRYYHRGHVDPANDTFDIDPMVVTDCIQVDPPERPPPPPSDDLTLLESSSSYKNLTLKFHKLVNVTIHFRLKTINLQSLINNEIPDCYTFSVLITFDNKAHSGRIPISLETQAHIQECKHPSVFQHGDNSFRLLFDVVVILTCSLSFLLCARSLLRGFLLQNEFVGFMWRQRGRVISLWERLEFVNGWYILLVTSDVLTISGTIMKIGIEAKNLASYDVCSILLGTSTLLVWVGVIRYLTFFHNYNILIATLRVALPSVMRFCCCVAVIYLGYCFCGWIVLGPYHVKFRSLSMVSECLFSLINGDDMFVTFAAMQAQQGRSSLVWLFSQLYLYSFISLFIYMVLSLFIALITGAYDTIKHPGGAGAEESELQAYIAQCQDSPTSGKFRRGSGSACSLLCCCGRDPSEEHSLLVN
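Calcium fluorescence on an FDSS kinetic reader gave the read-out. Tet-induced TRPML1-DL cells were plated overnight, dye-loaded (Ca8 with quencher, 45-90 min, room temperature, dark), then read 110 s after compound addition, and again 110 s after 4uM final 54-4 (EC80).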
Sfp PPTase inh: qHTS Assay for Inhibitors of Bacillus subtilis Sfp phosphopantetheinyl transferase (PPTase) | 3.5% of 310,000 active | AID 1490, 2009 | Biochemical Sfp PPTase activity, qHTS | Potency, µM, inactives show max response, negative = inhibition, usual class: inhibitors | 4'-phosphopantetheinyl transferase ffp (Bacillus subtilis), Q9F4F7; active means well fitted inhibition curve with a large enough effect; inconclusive means small, poorly fitted or top-dose-only effect, or another doubt; inactive means no such curve, though single readings can be large or run the other way;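 further: the enzyme is Sfp with the accession as filed and its product quenches rhodamine fluorescence; potency means the concentration at half of the fitted maximal effect; 0% = enzyme reaction without inhibitor and -100% = no enzyme wells; top concentration of the series not given in the record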
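After 15 min at room temperature with compound, 15 nM Sfp received 5 uM rhodamine-CoA plus 12.5 uM BHQ-2-ybbR (50 mM Hepes pH 7.6, 10 mM MgCl2). Rate came from the fluorescence difference over 30 min, ex 525/em 598 nm.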
TRPML1 inh: qHTS for Inhibitors of the Human Mucolipin Transient Receptor Potential 1 (TRPML1); activity change, negative = inhibition, % (concentration not given with the values); 0.02% of 390,000 active; TRPML1-inducible cells, Ca2+ dye fluorescence, FDSS; stronger effect = lower value; inhibition of EC80 agonist-evoked calcium signal; Mucolipin-1 (Homo sapiens), Q9GZU1; in the data active means activity change below about -50%; inconclusive means about -30% to -50%; inactive means above about -30%;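 further: stimulus is agonist 54-4 at its EC80 concentration; on the % scale 0 is the no-effect control and ±100 the full control effect; compound concentration not given in the record; the text of the record puts the active cut at -80%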
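Tet-induced TRPML1-DL cells loaded with Ca8 no-wash calcium dye were read kinetically on FDSS. Compound addition was followed by EC80 agonist 54-4 (4 uM final); inhibition was read over 110 s.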
ClpP mod: qHTS Assay for Activators of ClpP; ATP-dependent Clp protease proteolytic subunit (Bacillus subtilis (strain 168)), P80244; purified B. subtilis ClpP, FRET peptide cleavage, 20 min; Potency, µM (series often up to 57.5 µM), inactives show top-dose activity change, negative = active; 1.9% of 340,000 active; active = well fitted falling curve with a large enough effect; inconclusive = small, poorly fitted or top-dose-only effect; inactive = no such curve, though single readings can be large or run the other way; further: potency means the concentration at half of the fitted maximal effect; the source files actives as falling curves though it sought activators and does not explain the sign; nearly all actives have a fitted effect of over 65% in size; many hits overshoot -100%
Target sequence (P80244 whole entry, looked up): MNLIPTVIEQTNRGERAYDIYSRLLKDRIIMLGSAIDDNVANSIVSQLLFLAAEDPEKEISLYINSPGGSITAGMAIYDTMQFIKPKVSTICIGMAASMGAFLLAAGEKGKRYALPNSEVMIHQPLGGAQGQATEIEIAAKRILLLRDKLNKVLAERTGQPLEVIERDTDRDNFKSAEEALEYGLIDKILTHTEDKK
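Buffer: 100 mM Tris/HCl pH8, 100 mM KCl, 0.05% low protease BSA, 2.5% glycerol, 0.01% Tween-20. ClpP 10 microg/mL final; 20 min RT; delta FRET normalized to ADEP and DMSO controls.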
Active calls of the source: *; u = inconclusive; x = no result given; & = joins results of further samples; [ ] = remark or other dose. This is a random part of the collection; overall some 4.4% were active at least once.

canonical_smiles,PINK1 expr mod,Menin MLL FP FL,TRPV1 potentiator,TRPML1 ag,Sfp PPTase inh,TRPML1 inh,ClpP mod
Cc1ccccc1OCCCCc1c(C)n[nH]c1C,1.4%[38.3 µM],-1.2,-10,2.2,11%,21,0.6%
Cc1oc2cc3oc(=O)cc(C)c3cc2c1C,0.8%,-1.0,-6,-0.1,7%,3,-0.3%
Cc1ccc(C2N(C)C(=O)c3ccccc3N2C)cc1 (centres undefined),12%,4.7,28,0.0,11%,10,0.9%
COCc1cc(C)nc(SCC(=O)Oc2ccccc2)c1C#N,2.6%,-0.2,-9,-0.7,9%,-13,-2.3%
Cc1csc2c(N3CCCCC3)ncnc12,-0.1%,-0.8,-13,1.9,5%,1,-0.8%
CCC(CC)c1nnc(NC(=O)c2ccco2)s1,0.7%,-1.3,22,0.1,u,-13,x
CCOC(=O)c1ccc(NC(=O)Nc2ccccn2)cc1,4.5%,0.6,6,2.5,9%,-7,x
COc1ccc(CNC(=O)C(c2ccncc2)N(C(=O)Cc2cccs2)c2ccccc2)cc1 (centres undefined),2.8%,1.6,4,0.7,18%,12,x
CCOCCCNC(=O)c1ccc(N2CCCC2)c(NS(=O)(=O)c2ccc(C)cc2)c1,1.8%,1.3,-18,0.8,-11%,67,-4.4%
Cc1cc(=O)oc2cc(OCC(=O)Nc3cccc(S(=O)(=O)N(C)C)c3)ccc12,8.3%,8.3,4,0.0,29%,4,-13%
N#Cc1c(Nc2ccc(F)cc2)sc(C(=O)c2ccccc2)c1N,10.0%,-2.4,-18,3.9,-6%,8,-0.1%
CC1CCc2nc(NC(=O)CN3CCOCC3)sc2C1 (centres undefined),-1.0%,0.3,15,-0.6,5%,9,-0.5%
COc1ccccc1CNC(=O)[C@H](C)NC(=O)C1CCN(C(=O)[C@@H](N)CC(C)C)CC1,0.6%,2.7,1,-0.5,12%,2,1.5%
C[C@H](CO)N1C[C@H](C)[C@@H](CN(C)C(=O)Nc2ccccc2)Oc2c(NC(=O)Cc3ccccc3)cccc2C1=O,-0.7%,x,x,0.8,x,41,-0.9%
O=C(/C=C/c1ccccc1Cl)NC1CCCCC1,3.4%,-1.8,-9,0.5,4%,30,-2.5%
Cc1c(NC(=O)c2cc(-c3ccco3)on2)c(=O)n(-c2ccccc2)n1C,7.9%[38.3 µM],11,-9,0.1,-26%,-5,-4.7%
Cc1ccc2nc(N(CCN(C)C)C(=O)/C=C/c3cccs3)sc2c1,11%,5.8,12,1.0,-1%,28,23%
COc1cccc(CCNC(=O)c2ccc(C#N)cc2)c1,0.8%,-1.9,-17,-0.3,-9%,-7,-2.5%
COCCSc1nnc(NC(=O)C2CC(=O)N(c3ccc(C)cc3)C2)s1 (centres undefined),3.5%,-0.5,-7,0.7,4%,-9,-2.5%
Cc1nnn(C23CC4CC(CC(CC(=O)Nc5cccc(F)c5)(C4)C2)C3)n1,2.9%,2.2,-2,0.0,2%,-2,x

An excerpt from above with just ClpP mod, Sfp PPTase inh and Menin MLL FP FL.
Compound | ClpP mod | Sfp PPTase inh | Menin MLL FP FL
CC1CCc2nc(NC(=O)CN3CCOCC3)sc2C1 (centres undefined) | -0.5% | 5% | 0.3
COc1cccc(CCNC(=O)c2ccc(C#N)cc2)c1 | -2.5% | -9% | -1.9

Profiles, looked up by structure. Order of screens: PINK1 expr mod | Menin MLL FP FL | TRPV1 potentiator | TRPML1 ag | Sfp PPTase inh | TRPML1 inh | ClpP mod
COCc1cc(C)nc(SCC(=O)Oc2ccccc2)c1C#N reads 2.6% | -0.2 | -9 | -0.7 | 9% | -13 | -2.3%
COc1ccc(CNC(=O)C(c2ccncc2)N(C(=O)Cc2cccs2)c2ccccc2)cc1 (centres undefined) reads 2.8% | 1.6 | 4 | 0.7 | 18% | 12 | x

Additional compounds:
canonical_smiles,PINK1 expr mod,Menin MLL FP FL,TRPV1 potentiator,TRPML1 ag,Sfp PPTase inh,TRPML1 inh,ClpP mod
Cc1cc(NC(=O)C(C)SCC(=O)Nc2ccc(Br)cc2Br)no1 (centres undefined),-4.7%,x,1,1.0,x,-4,-1.4%
CCC(CC)COC(=O)C(C#N)c1nc2ccccc2nc1N1CCOCC1 (centres undefined),3.2%,u,1,3.8,-10%,55,-2.1%
Cn1c(-c2ccc(-c3ccccc3)cc2)c[nH]c1=S,-0.8%,-0.6,-6,2.0,-23%,40,13µM*
O=C(/C=C\c1ccc2c(c1)OCO2)NC1(C(=O)Nc2ccc3c(c2)OCCO3)CCCCC1,u,x,u,-1.3,16%,-8,-0.4%
O=C(Nc1ccccc1Cl)c1cc[n+](Cc2ccc([N+](=O)[O-])cc2)cc1,-0.3%,-2.9,2,-0.1,12%,5,-3.2%
CCOc1ccc(NC(=O)CN(C)C(=O)c2ccccc2Cc2ccccc2)cc1OCC,2.3%,x,16,1.9,x,0,1.3%
Cc1cccc(OCCC(=O)Nc2ccc(C)c(S(=O)(=O)N3CCCCC3)c2)c1,1.1%,4.9,3,1.6,14%,0,1.5%
COc1ccc(CC(C)CC(=O)Nc2ccc(OC)cc2)cc1 (centres undefined),6.3%,0.9,-2,0.8,12%,-13,-4.8%
Cc1ccc(C)c(Cn2c(C(C)NC(=O)c3ccccc3)nc3ccccc32)c1 (centres undefined),2.8%,x,x,2.4,x,-9,0.8%
O=C(N/N=C/c1ccc(N2CCOCC2)s1)c1ccccc1Cl,-1.2%,14,6,4.2,-30%,-2,-5.2%
CCN(CC)C(=O)C(=O)c1cccn1-c1cccc(Cl)c1C#N,1.4%,6.8,-14,-0.6,13%,-6,0.1%
Cc1ccc(CN2C(=O)N/C(=C\c3ccc(N4CCOCC4)cc3)C2=O)cc1,u,6.6,5,0.7,9%,4,3.4%
CCC1CCCN1Cn1cnc2c([nH]c3ccc(OC)cc32)c1=O (centres undefined),1.7%,3.9,18,-0.5,-27%,3,18µM*
CN(C)C1(CNC(=O)C2CCN(S(=O)(=O)c3cccc(C(F)(F)F)c3)CC2)CCCCC1,0.8%,x,-5,-0.3,25%,2,0.5%
O=C(O)C1CCCN1C(=O)Nc1ccccc1 (centres undefined),-1.7%,-0.8,2,0.0,-6%,2,1.4%
N#Cc1ccccc1Cn1c(=O)n(CCC(=O)NCc2ccco2)c(=O)c2ccccc21,-2.2%,6.5,0,-0.2,-16%,-14,-5.6%
O=C(CNC(=O)c1ccc(N2C(=O)c3ccccc3C2=O)cc1)OCC(=O)c1ccccc1,3.4%,0.9,14,4.2,-25%,-2,-0.4%
O=S(=O)(Nc1ncccn1)c1cc(Cl)ccc1Cl,-0.9%,-3.3,3,0.4,5%,10,1.1%
O=C(Cn1ccc2ccccc2c1=O)NCCC(=O)NC1CCN(Cc2ccccc2)CC1,-1.6%,5.9,x,2.3,-9%,-9,u
O=C(C1=C[C@@H](C2CC2)C[C@@H](OCCCCO)O1)N1CCN(Cc2ccccc2)CC1,-1.2%,-0.8,5,0.8,11%,-19,-5.4%

(listing goes on)
canonical_smiles,PINK1 expr mod,Menin MLL FP FL,TRPV1 potentiator,TRPML1 ag,Sfp PPTase inh,TRPML1 inh,ClpP mod
O=C(Nc1ccccc1)/C(=C/c1cccnc1)NC(=O)c1ccccc1,0.4%,2.5,16,0.3,9%,13,0.1%
C/C(=N\NC(N)=O)c1ccc(Cl)cc1,0.0%,-1.5,10,1.9,-1%,8,1.9%
O=C(c1ccc(Cl)cc1)n1nc(-c2ccccc2)nc1NCc1ccco1,2.3%,x,x,-0.7,x,-2,-15%
COc1ccc(CNC(=O)C2CCN(S(=O)(=O)c3cccc(-c4noc(C)n4)c3)CC2)cc1,2.9%,x,x,1.2,x,-8,4.1%
O=C(CN1CCN(c2ccc(Cl)cc2)CC1)NCc1cccs1,-2.0%,4.6,-11,4.2,7%,-7,-1.8%
Cc1cccn2c(=O)c3cc(C(=O)NCCc4ccc(S(N)(=O)=O)cc4)n(C)c3nc12,0.9%,x,x,0.5,x,-9,u
Cc1ccc2nc(N(Cc3cccnc3)C(=O)Cc3ccccc3)sc2c1,4.7%,x,x,1.8,x,52,1.1%
c1ccc(CNc2nc(-c3cccnc3)nc3ccccc23)cc1,0.6%&4.9%,0.5&-0.8,-10,-0.2,-8%&-20%,-16,-3.3%
Cc1ccc(CNC(=O)c2cc(-c3ccccc3C)n(CC3CC(c4cccc([N+](=O)[O-])c4)=NO3)n2)cc1 (centres undefined),1.3%,x,18,0.6,x,13,0.2%
Cc1ccc(-c2[nH]nc(N)c2N=Nc2ccccc2C)cc1,6.3%,12,2,0.8,10%,26,-4.4%
Cc1cc(Cl)ccc1C(=O)C1CCCN(C(=O)CCn2cncn2)C1 (centres undefined),2.3%,x,8,-0.3,17%,6,-1.5%
Cn1cnc2c1c(=O)n(Cc1cccc(Cl)c1)c(=O)n2C,2.7%,-11,u,-0.5,5%,0,1.0%
O=C(CN1C(=O)c2ccccc2C1=O)Nc1ccc2c(c1)OCO2,u,4.6,4,-0.3,14%,-6,-0.4%
COc1ccccc1/C=N/NC(=O)CNC(=O)c1ccc(S(=O)(=O)N(C)C)cc1,4.9%,2.0,19,-0.5,8%,9,x
Cc1noc(C)c1C(=O)OC(C)C(=O)Nc1ccc(S(=O)(=O)NC(C)C)cc1 (centres undefined),1.3%,3.9,5,1.1,-4%,36,1.4%
Cc1cccc(N2CCN(C(=O)C3CCN(S(=O)(=O)Cc4ccccc4)CC3)CC2)c1C,0.1%,x,x,-1.3,x,-5,0.2%
COc1ccc(C(=O)NCC(=O)N/N=C/C=C/c2ccccc2)cc1OC,0.0%,3.6,0,1.5,-4%,28,-0.8%
COc1ccc2nnc(-c3ccc(C(F)(F)F)cc3)n2n1,0.9%,4.3,0,-1.0,-12%,-12,u
